Screens (PubChem)
MgrA DNA FP: modulators of Staphylococcus aureus MgrA DNA binding | fluorescence polarization | inhibition, %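 (about 10 µg/mL by stock and volumes)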 | 84,000 tested, 0.13% active;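 active = above 50% in either of two replicates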;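 note: 0% = protein plus DNA without compound and 100% = DNA alone without protein; higher means less MgrA bound to DNA so lower polarization; one replicate is shown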
S aureus helic: blocks Staphylococcus aureus DNA helicase; purified S. aureus helicase, fluorescence unwinding assay; about half of the hits fall short of the stated cut; 120,000 tested, 0.05% active; inhibition, %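 (tested at about 80 µM)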;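 active = both duplicates at 50% or more, or one of them with a favoured structure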;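 note: 0% = mean of negative control wells and 100% = mean of positive control wells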
* = called active by the depositor; x = no result given. An excerpt; count on the stated rates, not on these rows.

MgrA DNA FP | S aureus helic | smiles
2.8 | x | OCCNC(=S)Nc1ccc(-c2n[nH]c(=S)o2)cc1
x | -11 | COc1ccc2nc(Cl)c(/C=N/NC3CCS(=O)(=O)C3)cc2c1 (centres undefined)
-0.8 | 1 | COc1ccc2[nH]cc(CCN3C(=O)c4ccccc4C3=O)c2c1
x | 14 | CC(C)=CC(=O)N1CCN(c2cccc(C(F)(F)F)c2)CC1
-3.1 | x | CC(C)(C)c1csc(Cc2ccc(-c3csnn3)cc2)n1
-2.4 | x | C=C(C)Cc1c(COC)nc(SC)[nH]c1=O
x | 11 | O=C(NC(=S)Nc1nn[nH]n1)C1CCCCC1
0.6 | -6 | O=C(CNc1ccc(Cl)cc1)NCC1CCCO1 (centres undefined)
0.6 | 12 | COc1ccc(/C=C/C(=O)Nc2ccc3nc(N4CCCCC4)cc(C)c3c2)cc1
x | 1 | COc1cccc(Oc2nnnn2-c2ccccc2)c1
-3.4 | 2 | CC(CCc1ccccc1)NC(=O)COc1ncnc2ccccc12 (centres undefined)
x | 17 | CCOC(=O)N1CCN(C(=O)C2CCC(=O)N(c3ccc(OC)cc3)C2c2ccc(F)cc2)CC1 (centres undefined)
-1.6 | 12 | NNc1nc2sc3c(c2c(=O)[nH]1)CCCC3
-1.7 | x | O=C1OC(c2ccccc2)=C/C1=C/c1ccccc1
1.5 | 14 | CCCNC(=O)c1cc(=O)n(Cc2ccc(Cl)cc2)c2ccccc12
0.0 | x | CNc1ncc(C(=O)c2ccccc2)s1
x | -3 | COc1ccc2[nH]c3c(=O)n(CCCCC(=O)N4CCN(c5ncccn5)CC4)c(=S)[nH]c3c2c1
x | 25 | Cc1ccc(-c2nnc(SCc3ccccc3F)o2)cc1
x | 5 | CCOc1ccccc1-c1cc(NC(=O)Cn2ncc3c(=O)oc4ccc(C)cc4c32)on1
x | 25 | CN(C)C(=O)CSc1nc2cc(S(=O)(=O)N3CCOCC3)ccc2o1
x | -20 | COc1ccc2c(c1)sc(=NC(=O)CSCC(=O)N1CCCc3ccccc31)n2C
-0.2 | 17 | O=C(CCS(=O)(=O)c1cccc2nonc12)NCc1ccc(Cl)cc1
1.4 | 13 | CC(C)=CCOc1cc(C)cc2oc(=O)cc(-c3ccccc3)c12
x | 10 | Cn1c(=O)c2c(SCCN3CCCC3)nc(C3CCCC3)nc2n(C)c1=O
0.2 | -5 | N#Cc1ccc(OCC(=O)NC2CCCCCC2)cc1
x | 7 | Cc1ccc(NC(=O)CC(=O)O)cc1
2.3 | 0 | O=C1CC(Sc2ccc(Cl)cc2)C(=O)N1c1ccc(Br)cc1 (centres undefined)
-2.1 | -3 | Cc1ccc(-n2c(N)cc(=O)[nH]c2=O)cc1
x | 10 | CC(=O)N1CCN(CCN2C(C)=CC(=C(C#N)C#N)C=C2C)CC1
4.5 | 1 | O=C(CSc1nc2ccccc2o1)c1ccc2c(c1)OCCO2
x | 20 | Cc1ccc(OCc2nc(SCC(=O)NC(=O)NC3CCCC3)n[nH]2)cc1
11 | 5 | O=C(O)/C=C/c1ccc(-c2ccccc2)o1
5.3 | -2 | Nc1nncn1C(=O)c1ccccc1F
x | -11 | Cc1ccc(S(=O)(=O)c2cc(C)ccc2C)cc1
-1.9 | x | CC(CNC1CCCCC1)OC(=O)c1ccccc1 (centres undefined)
x | 1 | COC(=O)c1ccc(COC(=O)c2cccc(S(=O)(=O)N3CCc4ccccc43)c2)o1
x | 8 | Cc1ccc(S(=O)(=O)CNC=O)cc1
x | -10 | O=C(CSc1ccccc1)NCC1CCCO1 (centres undefined)
x | -112 | N#CC(C#N)=C1C=C2C=C(N3CCc4ccccc4C3)CCC2CC1 (centres undefined)
-1.6 | 15 | O=C(COc1cccc(F)c1)OCC(=O)c1cccc(Cl)c1
0.4 | x | S=C(NC1CCCCC1)Sc1ccc(Cl)cc1
x | 27 | CN(N)c1nc(N2CCCC2)nc(N2CCCC2)n1
-1.1 | 5 | O=c1cc(/C=C/c2ccccc2)oc2ccccc12
x | 21 | O=S(=O)(c1ccc(-c2ccccn2)s1)N1CCOCC1
x | 11 | CC(C)CN(CC(C)C)c1nnc(N)s1
2.5 | 6 | CC(C)OC(=O)CSc1nc2ccccc2[nH]1
3.8 | 5 | Cc1cc(C)c2c(c1)c1n[nH]c(=S)nc1n2C
x | -5 | CC(=O)Nc1ncc2c(n1)CC(c1ccc(C)cc1)CC2=O (centres undefined)
x | -11 | COC(=O)c1cc2oc3ccccc3c2n1CC(=O)NCc1ccco1
x | 2 | CCN=PN1CCN(P(=NCC)(N(CC)CC)N(CC)CC)CC1 (centres undefined)
0.5 | -14 | COC(=O)Cc1ccc2sc(-c3ccccc3)nc2c1
x | 35 | CCc1ccc(NC(=O)CN2C(=O)c3ccccc3S2(=O)=O)cc1
x | -5 | COCCN(Cc1ccccc1)S(=O)(=O)c1ccccc1OC
1.5 | x | Cc1ccc(N/C=C2\C(=O)N(c3ccc(F)cc3F)C(c3cccnc3)S2(=O)=O)cc1 (centres undefined)
x | -6 | CC1Cc2ccccc2N1S(=O)(=O)c1cccc(C(=O)C(C#N)c2ccccn2)c1 (centres undefined)
0.4 | x | Cc1onc(-c2ccccc2Cl)c1-c1nc2ccc(I)cc2c(=O)o1

Later entries:
MgrA DNA FP | S aureus helic | smiles
-1.8 | x | COc1ccc(C=Nc2ccc(NC(=O)c3ccccc3O)cc2)cc1
-1.8 | 9 | N#CCCn1c(C2CCCCC2)nc2ccccc21
x | 9 | O=C1c2ccccc2C(=O)N1CC#CCN1CCN(CC#CCN2C(=O)c3ccccc3C2=O)CC1
-1.8 | 9 | O=C1NN=CC(c2ccccc2)(c2c[nH]c3ccccc23)N1 (centres undefined)
x | -3 | Nc1nc(-c2nc3ccccc3[nH]2)cs1
x | -264 | N#Cc1cc(C(=O)c2ccccc2O)cn2c(=O)c3ccccc3nc12
-5.2 | 17 | C(=C\c1ccccc1)/CNCCN1CCOCC1
x | -3 | COc1ccccc1-n1cnnc1SC(C)C(=O)NCCC1=CCCCC1 (centres undefined)
0.2 | -3 | CCOC(=O)C[n+]1ccccc1C
1.4 | x | CCOC(=O)c1ccc(N=C2SC(C(=O)Nc3cccc(Cl)c3)CC(=O)N2C)cc1 (centres undefined)
-1.1 | x | O/N=C/C1=C(Cl)c2cc(Cl)ccc2SC1
x | -18 | O=C1NNC(c2ccccc2)=N/C1=C\c1ccco1
-0.4 | -31 | O=C(COc1ncnc2ccccc12)Nc1cccc(C(F)(F)F)c1
3.7 | 10 | Cc1cc(OC(C)C(=O)Nc2ncn[nH]2)ccc1Cl (centres undefined)
-6.2 | x | CC1(C)CC(Nc2ccc(Nc3ccccc3)cc2)CC(C)(C)N1
-1.9 | x | CCN(CC)CCOc1ccc(/C(=C(/Cl)c2ccccc2)c2ccccc2)cc1

Random excerpt: 3 entries already listed
MgrA DNA FP | S aureus helic | smiles
-6.2 | x | CC1(C)CC(Nc2ccc(Nc3ccccc3)cc2)CC(C)(C)N1
-1.1 | x | O/N=C/C1=C(Cl)c2cc(Cl)ccc2SC1
3.7 | 10 | Cc1cc(OC(C)C(=O)Nc2ncn[nH]2)ccc1Cl (centres undefined)

Next part.
MgrA DNA FP | S aureus helic | smiles
x | 3 | COc1ccccc1Oc1ccc(S(=O)(=O)Nc2cccnc2)cc1
-0.3 | x | CN1N=C(c2ccc3ccccc3c2)CC1c1ccc(F)cc1 (centres undefined)
x | -24 | CCOC(=O)c1cc2ccccc2c(=O)s1
x | 8 | CN(C1CCCCC1)S(=O)(=O)c1ccc(C(=O)Nc2nnc(-c3cccnc3)o2)cc1
-0.7 | x | CCNS(=O)(=O)c1ccc(-c2oc3cc(S(=O)(=O)NCC)ccc3c2Cl)cc1
x | 10 | CCOc1cc(C2CC(=O)NC(SCc3ccccc3)=C2C#N)ccc1O (centres undefined)
x | -27 | Nc1c(-c2nc(-c3ccc4c(c3)OCO4)no2)nnn1-c1ccc(C(F)(F)F)c(Cl)c1
-1.9 | 13 | CN(C)Cc1cc2ccccc2[nH]1
x | -22 | Cc1ccc2onc(CNC(=O)Nc3cccc(C(F)(F)F)c3)c2c1
x | -10 | CCC(CC)NC(=O)CN1C(=O)C2CC=CCC2C1=O (centres undefined)
x | 15 | CC(C)N(C(=O)CSc1nc(=O)n2ccccc2n1)C(C)C
x | -1 | O=C(COC(=O)c1cc2c(s1)CCC2)c1ccc[nH]1
x | 6 | N#Cc1ccc(S(=O)(=O)N2CCN(S(=O)(=O)c3cccs3)CC2)cc1
0.0 | -1 | COc1ccccc1NC(=O)c1cc(=O)[nH]c2ccccc12
0.3 | -16 | Cc1c(C(=O)Nc2ccc(F)cc2F)sc2ncnc(N(C)c3ccccc3)c12
x | -26 | COCCNS(=O)(=O)c1cc(Br)cc2c1N(C(C)=O)CC2
-0.1 | 13 | C=CCNc1cc(-c2ccccc2)nc2nncn12
x | 6 | O=C(N/N=C1/C(=O)c2cccc3cccc1c23)NC1CCCCC1
0.5 | -16 | CCN(CC)CCn1c(N)nc2ccccc21
2.6 | x | COc1ccc(C2Nc3ccccc3C(=O)N2c2ccc(F)cc2)cc1COc1ccc(NC(C)=O)cc1 (centres undefined)
x | -11 | O=C(ONc1cnc2ccccc2c1)c1ccco1
-2.2 | -4 | CN(CC(=O)Nc1cccnc1)S(=O)(=O)c1ccc2[nH]c3c(c2c1)CCCC3
x | 14 | CCSC1=C(C#N)C(c2ccccc2Cl)C2=C(CCCC2=O)N1 (centres undefined)
x | 25 | CCOc1ccc(-c2cn3c(n2)sc2cc(C(=O)NCc4cccs4)ccc23)cc1
-0.6 | 5 | O=C(NCc1ccccc1)c1cc2ccc(O)cc2oc1=O
-2.8 | 10 | CCCC(C)C(=O)NCc1ccc(C)cc1 (centres undefined)
x | 3 | Clc1ccc(Cn2nnc3c(SCc4cccnc4)ncnc32)cc1
-1.1 | x | CSc1nn(-c2ccccc2)cc1C(=O)N1CCCCC1
1.3 | 1 | Cc1cccc(OCC(=O)Nc2ccc3c(c2)nc2n3CCN(c3ccccc3)C2)c1
-0.5 | 17 | N#CCCn1c(CC(N)=O)nc2ccccc21
x | 14 | Cc1ccc(C2c3c(oc4ccc(C)cc4c3=O)C(=O)N2c2ccccn2)cc1 (centres undefined)
-2.2 | x | CCOc1ccc(C2NC(C(=O)O)CS2)cc1 (centres undefined)
x | 8 | Cc1onc(-c2ccccc2)c1C(=O)ON=C1C2CC3CC(C2)CC1C3
x | 6 | C/C(=N\NC(=O)c1ccc(NS(=O)(=O)c2cccs2)cc1)c1cccs1
-3.8 | 4 | CC12CS(=O)(=O)CC1SC(=S)N2Cc1ccccc1 (centres undefined)
3.2 | x | CC1(C)CCc2cc(CN3CCN(c4ncc(C(F)(F)F)cc4Cl)CC3)ccc2O1
-0.8 | -2 | O=C(O)c1cccc(OCc2ccccc2)c1
0.1 | 1 | Cc1ccc(N=Cc2ccc3c(c2)OCCO3)cc1C
6.7 | 9 | O=C1OC(c2ccc(Cl)cc2)/C(=C(/O)c2ccccc2)C1=O (centres undefined)
x | -8 | O=C(CN1C(=O)/C(=C\c2cccs2)SC1=S)Nc1ccc2c(c1)OCO2
-2.1 | 11 | Clc1cccc(-c2cc3nc4c(c(N5CCCCC5)n3n2)CCCC4)c1
x | 8 | COc1ccc(Cn2cccc2C2=NCC(C)O2)cc1 (centres undefined)
-0.2 | 7 | Nc1nc(N)nc(COc2ccccc2)n1
0.4 | 7 | Cc1cc(OCC(=O)N(C)C2CCCCC2)ccc1Cl
x | -5 | O=C(COC(=O)c1cccc2ccccc12)NC1CC1
x | 8 | CC(C)OC(=O)CN1CCN(c2ccc(Cl)cc2)CC1
0.5 | -6 | c1ccc(-c2cc(-c3ccccc3)n3ncnc3n2)cc1
x | -10 | Cc1nn(C(=O)C2CC2)c(C)c1Sc1ccccc1
-0.9 | 14 | CC(C)=Cc1c(O)nc2ccccn2c1=O
-4.6 | 3 | Cn1c(O)c(C=NC(Cc2c[nH]c3ccccc23)C(=O)O)c(=O)n(C)c1=O (centres undefined)
x | 14 | COc1ccc(OC)c(/C=C/C(=O)Nc2cc(C(N)=O)cc(C(N)=O)c2)c1
x | 32 | CCN1CCN(CCCNC(=O)c2ccc3c(=O)n4c(nc3c2)CCCCC4)CC1
0.7 | 8 | COc1cc(NC(=O)C2CCCCC2)c(OC)cc1NC(=O)CCC(=O)NCc1ccco1
0.9 | -15 | Cc1cc(C(O)(C(F)(F)F)C(F)(F)F)c(C)n1-c1ccccc1
x | 1 | COC(=O)c1cc(CSc2nc3ccccc3n2CCC#N)oc1C
x | 7 | COC(=O)c1sc(N)c(C(=O)OC)c1Cn1nnc(-c2ccccc2)n1

Three entries already listed, sorted by their value in MgrA DNA FP, falling:
MgrA DNA FP | S aureus helic | smiles
0.9 | -15 | Cc1cc(C(O)(C(F)(F)F)C(F)(F)F)c(C)n1-c1ccccc1
0.7 | 8 | COc1cc(NC(=O)C2CCCCC2)c(OC)cc1NC(=O)CCC(=O)NCc1ccco1
-4.6 | 3 | Cn1c(O)c(C=NC(Cc2c[nH]c3ccccc23)C(=O)O)c(=O)n(C)c1=O (centres undefined)

New compounds follow:
MgrA DNA FP | S aureus helic | smiles
16 | x | CSc1c(C#N)c(N)nc2sc(C(=O)c3ccc(Cl)c(Cl)c3)c(N)c12
7.8 | -6 | Cc1ccc(Nc2ccc3noc4c3c2C(=O)c2ccccc2-4)cc1
-0.1 | 8 | c1ccc(Cc2nc3ccccc3[nH]2)cc1
12 | x | COc1ccc(CN2C(=O)CC(C(=O)Nc3ccc(C(=O)O)cc3)SC2=Nc2ccc(Cl)cc2)cc1 (centres undefined)
0.7 | 11 | Cc1nn(C(N)=S)c2c1CC(COCCC(C)C)O2 (centres undefined)
-0.4 | 0 | COc1cc(-c2nc3ccc(Cl)cn3c2NC(C)(C)C)ccc1O

Another view of part of the listing above:
SMILES: CSc1c(C#N)c(N)nc2sc(C(=O)c3ccc(Cl)c(Cl)c3)c(N)c12
  MgrA DNA FP = 16
  S aureus helic = x
SMILES: Cc1ccc(Nc2ccc3noc4c3c2C(=O)c2ccccc2-4)cc1
  MgrA DNA FP = 7.8
  S aureus helic = -6
SMILES: c1ccc(Cc2nc3ccccc3[nH]2)cc1
  MgrA DNA FP = -0.1
  S aureus helic = 8
SMILES: COc1ccc(CN2C(=O)CC(C(=O)Nc3ccc(C(=O)O)cc3)SC2=Nc2ccc(Cl)cc2)cc1 (centres undefined)
  MgrA DNA FP = 12
  S aureus helic = x
